A647 autofl = compound fluoresces in the A647 spectral region | Compound fluorescence, A647 channel (570/671 nm), Tris buffer | max dye-equivalent concentration, M | 59,000 tested, under 10 active; active means above 1 µM dye equivalent; inconclusive means 0.1 to 1 µM; inactive means 0.1 µM or less;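 further: values scaled relative to a standard on each plate; highest value over a series up to 38 µM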
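Buffer was dispensed, compounds and Alexa 647 standards were pin-transferred, and plates sat 15 min at room temperature. Intensity at 570/671 nm was then converted to dye-equivalent concentration using the plate's A647 standard curve.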
AID923 = qHTS Assay for Allosteric/Competitive Inhibitors of Caspase-1: Spectroscopic Profiling in AFC Spectral Region. 75,000 tested, 1.1% active. AID 923, 2007. compound fluorescence, AFC spectral region (405/520 nm); almost no hit is shown here. Potency, µM (doses to about 57.5 µM), inactives show at the highest dose fluorescence increase, usual class: activators; active means well fitted activation curve with a large enough effect; inconclusive means small, poorly fitted or top-dose-only effect;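 further: potency means the concentration at half of the fitted maximal effect; 0% is about no effect; scaled to a free AFC standard on each plate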
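Baseline compound fluorescence (AFC region, 405 nm ex/520 nm em) taken from the intercept of kinetic reads with 50 nM caspase-1 and 5 uM Ac-WEHD-AFC; normalized to an on-plate AFC standard curve; compounds titrated up to 57 uM.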
Resorufin fluor = compound fluoresces in the resorufin spectral region; Compound fluorescence, resorufin region 547/598 nm, buffer; stronger effect = higher value; 59,000 tested, 0.04% active; max dye-equivalent concentration, M; active = above 10 nM dye equivalent; inconclusive = 1 to 10 nM; inactive = 1 nM or less; a few of its hits are not listed in these tables; further: highest value over a series up to 38 µM
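Compounds in 100 mM Tris, pH 8.0, incubated 15 min at room temperature, then fluorescence read at 547 nm excitation/598 nm emission. Signal converted to dye-equivalent concentration via an on-plate six-point resorufin standard curve, per compound concentration.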
TSHR ag = activates the human thyroid stimulating hormone receptor; P16473; HEK293-CNG-TSHR cells (CNG channel as cAMP sensor), membrane potential dye, cAMP; Potency, µM (doses to about 57.1 µM), without a hit: at the highest dose activation, most hits filed as activators; 73,000 tested, 0.48% active; active = well fitted activation curve of enough size with the parental cells flat; inconclusive = any curve in the parental cells; inactive = parental cells flat and receptor cells flat or falling; further: potency means the concentration at half of the fitted maximal effect; % of control where 0% means no effect; weak receptor curves with flat parental cells got no call and are not listed
Target sequence (P16473 whole entry, looked up): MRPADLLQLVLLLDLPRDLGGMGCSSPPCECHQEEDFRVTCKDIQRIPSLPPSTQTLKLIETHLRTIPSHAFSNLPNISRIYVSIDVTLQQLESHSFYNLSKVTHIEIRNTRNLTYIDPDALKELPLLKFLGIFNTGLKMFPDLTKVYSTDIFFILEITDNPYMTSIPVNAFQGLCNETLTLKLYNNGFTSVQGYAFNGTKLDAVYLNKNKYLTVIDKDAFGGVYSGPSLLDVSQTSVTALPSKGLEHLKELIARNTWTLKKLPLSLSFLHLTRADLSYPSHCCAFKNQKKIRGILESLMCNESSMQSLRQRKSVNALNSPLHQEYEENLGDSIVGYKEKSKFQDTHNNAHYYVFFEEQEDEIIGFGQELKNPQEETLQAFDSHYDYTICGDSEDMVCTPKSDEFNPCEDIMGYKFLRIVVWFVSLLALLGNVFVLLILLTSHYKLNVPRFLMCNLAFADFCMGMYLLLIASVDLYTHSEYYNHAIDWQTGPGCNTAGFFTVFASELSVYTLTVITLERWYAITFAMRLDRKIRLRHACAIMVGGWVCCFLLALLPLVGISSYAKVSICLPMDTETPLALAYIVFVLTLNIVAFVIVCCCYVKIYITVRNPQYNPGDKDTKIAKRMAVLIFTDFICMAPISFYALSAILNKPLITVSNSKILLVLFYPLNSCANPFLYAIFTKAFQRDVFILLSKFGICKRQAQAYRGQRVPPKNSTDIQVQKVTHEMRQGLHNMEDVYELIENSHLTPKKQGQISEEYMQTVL
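cAMP rise detected as CNG-channel membrane depolarization by fluorescent dye (emission 590 nm), 30 min after compound, following 60 min dye loading containing 100 uM RO 20-1724 at room temperature. Cells: TSHR/CNG HEK 293, with parental CNG HEK 293 as control.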
A488 autofl = compound fluoresces in the A488 spectral region. 59,000 tested, 0.1% active. max dye equivalency, M. compound autofluorescence, A488 spectral region, dye equivalency; stronger effect = higher value; active = above 10 nM dye equivalent; inconclusive = 1 to 10 nM; inactive = 1 nM or less; about half of its hits are not listed in these tables;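 further: highest value over a series up to 38 µM; compound alone in buffer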
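Spectroscopic profiling in the A488 region: compounds in pH 8.0 Tris (100 mM), 15 min RT, CCD imaging with 480 nm excitation and 540 nm emission; responses normalized against A488 dye standards.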
* hit, by the source's call; [ ] = dose if it differs, or a comment. Not all compounds are listed, so the mix of outcomes need not match the whole.

COc1ccc(C(=O)n2ccc(C)n2)cc1Br was read as A647 autofl 1.3e-08, AID923 -1.6%, Resorufin fluor inactive, TSHR ag 6% and A488 autofl inactive.
For N#Cc1nc(-c2ccco2)oc1NCc1cccnc1 the results were A647 autofl 1e-09, AID923 1.5%, Resorufin fluor inactive, TSHR ag 3% and A488 autofl inactive.
`CCn1c(=O)cc(SCC(=O)N2CCCCC2)c2ccccc21` gave A647 autofl 5e-08, AID923 0.2%, Resorufin fluor inactive, TSHR ag -3% and A488 autofl inactive.
Screening OC1(C(O)(c2ccc(-c3ccccc3)cc2)c2ccc(-c3ccccc3)cc2)CCCCC1 returned A647 autofl 1e-09, AID923 -0.9%[11.5 µM], Resorufin fluor inactive, TSHR ag -1%[11.4 µM] and A488 autofl inactive.
For COc1ccc(-n2c(=O)c(C)nc3cnc(Oc4ccccc4)nc32)cc1 the results were A647 autofl 1e-09, AID923 2.6%, Resorufin fluor inactive, TSHR ag -1% and A488 autofl inactive.
Cn1ccnc1SCC(=O)NC12CC3CC(CC(C3)C1)C2 was read as A647 autofl 1e-09, AID923 -0.3%, Resorufin fluor inactive, TSHR ag inconclusive and A488 autofl inactive.
Screening C/C(=N/O)c1ccc2cc(Br)c3ccccc3c2c1 returned A647 autofl 1.9e-08, AID923 3.6%[11.5 µM], Resorufin fluor inactive, TSHR ag -1%[11.4 µM] and A488 autofl inactive.
Screening Cc1cc(=O)oc(C)c1C(=O)NCc1ccccn1 returned A647 autofl 2.6e-09, AID923 0.8%, Resorufin fluor inactive, TSHR ag 4% and A488 autofl inactive.
`Cc1nc(S(=O)(=O)NC2CCCCC2)c(C#N)c(C)c1Cl` gave A647 autofl 2.5e-09, AID923 -1.3%, Resorufin fluor inactive, TSHR ag 16% and A488 autofl inactive.
For COc1ccc(NC(=O)C2CCCN2S(=O)(=O)c2cccc3cccnc23)c(OC)c1 (stereo not drawn) the results were AID923 1.8% and TSHR ag 0%.
For CCOC(=O)C1Cc2ccccc2C(=O)O1 (stereo not drawn) the results were AID923 2.4% and TSHR ag 0%[11.4 µM].
Screening Cc1ccc(-c2noc(C3CCCN(C(=O)C4CCCCC4)C3)n2)o1 (stereo not drawn) returned A647 autofl 9e-09, AID923 -0.8%, Resorufin fluor inactive, TSHR ag inconclusive and A488 autofl inactive.
`N#CCCn1nc(-c2ccccc2)cc1Nc1ccccc1NC(=O)c1cccs1` gave A647 autofl 7.1e-08, AID923 4.3%, Resorufin fluor inactive, TSHR ag 3% and A488 autofl inactive.
CCN(CC)CCN=CC1=C(O)CNC1=O was read as A647 autofl 3.2e-08, AID923 1.6%, Resorufin fluor inactive, TSHR ag -10% and A488 autofl inactive.
COC(=O)CN(c1ccc(F)cc1)S(=O)(=O)c1ccccc1 was read as A647 autofl 4e-09, AID923 2.3%, Resorufin fluor inactive, TSHR ag inconclusive and A488 autofl inactive.
Screening CC1=Nc2ccc(C)cc2N(Cc2ccccc2)C(=O)C1 returned AID923 0.0% and TSHR ag 10%.
COc1cccc(-c2nn3c(-c4cc(C)[nH]n4)nnc3s2)c1 was read as A647 autofl 2.7e-08, AID923 1.9%, Resorufin fluor inactive, TSHR ag 9% and A488 autofl inactive.
Screening COc1cccc(C2/C(=C(/O)c3ccc(F)cc3)C(=O)C(=O)N2CCN(C)C)c1 (stereo not drawn) returned AID923 -0.3% and TSHR ag -2%[11.4 µM].
For O=C(NCc1ccc(Cl)cc1)c1ccc(COCC(F)(F)F)o1 the results were A647 autofl 1e-09, AID923 0.9%, Resorufin fluor inactive, TSHR ag inconclusive and A488 autofl inactive.
c1nc(N2CCOCC2)c2c3c(sc2n1)CCCC3 was read as A647 autofl 6.2e-09, AID923 -1.7%, Resorufin fluor inactive, TSHR ag 18% and A488 autofl inactive.

Not a retest: 3 of the compounds above.
COc1ccc(C(=O)n2ccc(C)n2)cc1Br was read as A647 autofl 1.3e-08, AID923 -1.6%, Resorufin fluor inactive, TSHR ag 6% and A488 autofl inactive.
For N#Cc1nc(-c2ccco2)oc1NCc1cccnc1 the results were A647 autofl 1e-09, AID923 1.5%, Resorufin fluor inactive, TSHR ag 3% and A488 autofl inactive.
`CCn1c(=O)cc(SCC(=O)N2CCCCC2)c2ccccc21` gave A647 autofl 5e-08, AID923 0.2%, Resorufin fluor inactive, TSHR ag -3% and A488 autofl inactive.

(continued)
Screening COc1cc(C(=O)N2CCN(c3ccc(C)cc3C)CC2)cc(OC)c1OC returned AID923 -2.3% and TSHR ag 3%[11.4 µM].
For COCCNC(=O)CC(NS(=O)(=O)c1ccc(NC(C)=O)cc1)C(C)C (stereo not drawn) the results were AID923 0.4% and TSHR ag 2%.
For Cc1ccc(C)c(C(=O)NCc2ccncc2)c1 the results were A647 autofl 3.4e-09, AID923 1.5%, Resorufin fluor inactive, TSHR ag -11% and A488 autofl inactive.
Screening Cc1c(C(=O)OCc2cc(=O)n3cc(Br)ccc3n2)oc2ccccc12 returned A647 autofl 2.8e-08, AID923 1.7%, Resorufin fluor inactive, TSHR ag 8% and A488 autofl inactive.
For CN1C(=O)NC2C1N(S(C)(=O)=O)CCN2S(C)(=O)=O (stereo not drawn) the results were AID923 -0.5% and TSHR ag 2%.
`CCOc1cc(C2C(C(=O)c3ccc(C)cc3)=C(C(=O)OC)Nc3nnnn32)ccc1O` (stereo not drawn) gave A647 autofl 1e-08, AID923 6.2%, Resorufin fluor inactive, TSHR ag 0% and A488 autofl inactive.
For Nc1cc(N)nc(SCc2cc(=O)oc3cc4c(cc23)CCC4)n1 the results were A647 autofl 1e-09, AID923 0.9%, Resorufin fluor inactive and A488 autofl inactive.
Screening COC(=O)C1=C(C)N(c2ccc(F)c(Cl)c2)C(=O)C1 returned A647 autofl 1e-09, AID923 0.4%, Resorufin fluor inactive, TSHR ag 7% and A488 autofl inactive.
For COC(=O)c1ccc(CSc2nnnn2-c2ccc(C)cc2C)o1 the results were A647 autofl 1e-09, AID923 -0.6%, Resorufin fluor inactive, TSHR ag inconclusive and A488 autofl inactive.
Screening COc1ccc(OC)c(C(c2nnnn2C2CCCC2)N2CCc3ccccc3C2)c1 (stereo not drawn) returned A647 autofl 1.2e-08, AID923 9.5%, Resorufin fluor inactive, TSHR ag inconclusive and A488 autofl inactive.
CCCn1c(SCC(=O)N2c3ccccc3Sc3ccccc32)nc2c1c(=O)n(C)c(=O)n2C was read as A647 autofl 3.3e-08, AID923 -0.3%, Resorufin fluor inactive, TSHR ag inconclusive and A488 autofl inactive.
Screening Cc1nc(NC(=O)C2CC2)sc1C(=O)N1CCCCC1 returned A647 autofl 6.8e-09, AID923 0.3%, Resorufin fluor inactive, TSHR ag -5% and A488 autofl inactive.
For Oc1c(C(O)(c2ccccc2)c2ccc3ccccc3c2O)ccc2ccccc12 the results were A647 autofl 1e-09, AID923 -0.6%[11.5 µM], Resorufin fluor inactive, TSHR ag -15%[11.4 µM] and A488 autofl inactive.
Screening Cc1oncc1C(=S)Nc1ccccc1 returned AID923 0.3% and TSHR ag -3%.
CCn1cc(C2=NOC(C(=O)Nc3cc(OC)c(Cl)cc3OC)C2)c(C)n1 (stereo not drawn) was read as AID923 0.3% and TSHR ag inconclusive.
For O=C(NC1CCCCCC1)c1cccc(N2CCCC2=O)c1 the results were A647 autofl 1e-09, AID923 0.8%, Resorufin fluor inactive, TSHR ag -1% and A488 autofl inactive.
`CN(C)CCO[C@@H](c1ccc(Cl)cc1)c1ccccn1` gave A647 autofl 4.4e-09, AID923 -1.4%[25.7 µM], Resorufin fluor inactive, TSHR ag 5%[25.6 µM] and A488 autofl inactive.
For O=C(OCc1nnc(-c2ccccc2)o1)C1CCN(S(=O)(=O)c2cccs2)CC1 the results were A647 autofl 3.5e-08, AID923 -0.2%, Resorufin fluor inactive, TSHR ag 11% and A488 autofl inactive.
CC1=C(C(=O)OCc2ccccc2)C(c2cccc([N+](=O)[O-])c2)NC(=O)N1CCCCCC(=O)O (stereo not drawn) was read as AID923 -0.9% and TSHR ag 0%.
CCCC1(C(=O)OCC)NC(c2ccc(N(C)C)cc2)C2C(=O)N(c3ccc(OCC)cc3)C(=O)C21 (stereo not drawn) was read as A647 autofl 7.6e-09, AID923 1.2%, Resorufin fluor inactive, TSHR ag 0% and A488 autofl inactive.
For O=c1cccc(-c2ccccc2)[nH]1 the results were A647 autofl 3e-08, AID923 0.6%, Resorufin fluor inactive, TSHR ag 3% and A488 autofl inactive.
`CCOC(=O)c1cc2n(c1C)-c1ccccc1C2=O` gave A647 autofl 1e-09, AID923 -0.8%, Resorufin fluor inactive, TSHR ag -7% and A488 autofl inactive.
Screening CCCn1c2c(c(O)c(C(=O)Nc3ncccc3C)c1=O)CCCC2 returned A647 autofl 1e-09, AID923 1.5%, Resorufin fluor inactive, TSHR ag 25% and A488 autofl inactive.
CCS(=O)(=O)N1CCC(C(=O)N2CCOCC2)CC1 was read as A647 autofl 7.3e-09, AID923 0.4%, Resorufin fluor inactive, TSHR ag 7% and A488 autofl inactive.
`COc1ccc(-c2nnc(SCC(=O)N3CCCC3)o2)cc1OC` gave A647 autofl 1e-09, AID923 0.6%, Resorufin fluor inactive, TSHR ag 0% and A488 autofl inactive.
Cc1cc(=O)[nH]c(SCn2nnc3ccccc3c2=O)n1 was read as A647 autofl 1e-09, AID923 -1.2%, Resorufin fluor inactive, TSHR ag 1% and A488 autofl inactive.
`Cc1cc2ccccc2c(=O)n1CC(=O)NCC(=O)N1CCCC1` gave A647 autofl 1.1e-08, AID923 0.6%, Resorufin fluor inactive and A488 autofl inactive.
Screening CCOC(=O)c1ccc(N2C(=O)c3n[nH]c(C)c3C2c2cccnc2)cc1 (stereo not drawn) returned A647 autofl 1e-09, AID923 -0.8%, Resorufin fluor inactive, TSHR ag 10% and A488 autofl inactive.
For COc1cccc(C(=O)NCc2nnc(SCC(=O)Nc3nccs3)n2-c2cccc(C)c2)c1 the results were A647 autofl 1.7e-08, AID923 5.8%, Resorufin fluor inactive, TSHR ag -2% and A488 autofl inactive.
COc1ccc(N(Cc2cc3cc(OC)ccc3[nH]c2=O)C(=O)c2cccnc2)cc1 was read as A647 autofl 1e-09, AID923 1.0%, Resorufin fluor inactive, TSHR ag 5% and A488 autofl inactive.
For O=C(CN1CCN(c2ccccn2)CC1)Nc1ccc(Cl)c(C(F)(F)F)c1 the results were A647 autofl 3.1e-08, AID923 0.0%, Resorufin fluor inactive, TSHR ag 12% and A488 autofl inactive.
For O=C(Nc1ccc(N2CCCC2)cc1)c1cccc(F)c1 the results were A647 autofl 2.5e-09, AID923 6.4%, Resorufin fluor inactive, TSHR ag inconclusive and A488 autofl inactive.
Screening Cc1ccc2cc(CCNC(=O)CC(C)C)c(=O)[nH]c2c1 returned AID923 -1.4% and TSHR ag -5%.
For O=C(CSc1nnc(NCc2ccccc2)s1)c1ccco1 the results were A647 autofl 4.9e-09, AID923 0.5%, Resorufin fluor inactive, TSHR ag -3% and A488 autofl inactive.
`C=CCn1c(COc2ccccc2)nnc1SCC(=O)Nc1ccc(S(N)(=O)=O)cc1` gave A647 autofl 2.4e-08, AID923 1.1%, Resorufin fluor inactive, TSHR ag -3% and A488 autofl inactive.
`C/C(O)=C\c1nc(=O)c2c(C)cc(C)nc2n1-c1ccccc1` gave A647 autofl 8.1e-09, AID923 0.7%, Resorufin fluor inactive, TSHR ag 30% and A488 autofl inactive.
Clc1ccc(COn2nnc3ccccc32)c(Cl)c1 was read as A647 autofl 1.2e-09, AID923 0.6%, Resorufin fluor inactive, TSHR ag inconclusive and A488 autofl inactive.
Screening CN(CCO)CC(O)Cn1cnc2c1c(=O)n(C)c(=O)n2C (stereo not drawn) (tested in a mixture with another compound) returned A647 autofl 3.9e-08, Resorufin fluor inactive and A488 autofl inactive.
CCN(C(=O)Cc1c(C(=O)O)[nH]c2ccccc12)c1cc(OC)ccc1OC was read as A647 autofl 1e-09, AID923 0.8%, Resorufin fluor inactive, TSHR ag -1% and A488 autofl inactive.
